UCH37 inh: human UCH37 deubiquitinating enzyme inhibition. Q9Y5K5. AID 588478. inhibition, % (concentration not given with the values). 0.33% of 330,000 active. purified proteasome/UCH37, Ub-AMC cleavage fluorescence;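 active means mean of two replicates above 20%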;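 further: 0% = compound-free wells with enzyme and 100% = wells lacking proteasome; stock transfer was 100 nL into about 20 µL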
Target sequence (Q9Y5K5 whole entry, looked up): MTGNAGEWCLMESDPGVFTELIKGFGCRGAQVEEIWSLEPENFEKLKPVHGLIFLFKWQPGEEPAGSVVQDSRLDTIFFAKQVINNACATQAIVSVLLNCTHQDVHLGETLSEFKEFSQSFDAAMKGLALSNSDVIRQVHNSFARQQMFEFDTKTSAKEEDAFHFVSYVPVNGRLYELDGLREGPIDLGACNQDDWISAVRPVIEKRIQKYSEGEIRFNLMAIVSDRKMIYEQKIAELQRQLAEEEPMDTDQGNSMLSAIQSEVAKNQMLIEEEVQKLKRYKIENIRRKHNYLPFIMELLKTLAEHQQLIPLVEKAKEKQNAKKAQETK
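Material: human UCH37 enzyme supplied as purified proteasome complex / Amount: 0.15 nM proteasome as dispensed / Buffer or medium: pH 7.4 Tris-HCl (50 mM) with ovalbumin, ATP-MgCl2, DTT / Times: preincubation 30 min, reaction 25 min, room temperature / Technique: AMC fluorescence from Ub-AMC cleavage, excitation 355 nm, emission 460 nm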
ALR H2O2 inh: blocks human ALR sulfhydryl oxidase activity; 3.8% of 290,000 active; AID 485317; inhibition, % (test concentration not listed); P55789; purified ALR, DTT oxidation, H2O2 HRP-luminol luminescence;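 active means mean and each replicate at 75% or more; inconclusive means only one of the two met; inactive means neither met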;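 further: stock transfer was 7.5 nL into about 7.5 µL; 0% = neutral wells and 100% = wells with inactivated enzyme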
Target sequence (P55789 whole entry, looked up): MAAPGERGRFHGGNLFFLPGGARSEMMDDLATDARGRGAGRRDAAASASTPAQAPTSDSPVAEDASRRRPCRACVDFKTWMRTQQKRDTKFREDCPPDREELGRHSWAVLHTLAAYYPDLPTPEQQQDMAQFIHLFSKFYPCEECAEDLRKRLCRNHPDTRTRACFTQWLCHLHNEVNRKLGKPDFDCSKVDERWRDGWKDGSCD
Ecoli growth: inhibitors of Escherichia coli growth; 0.21% of 330,000 active; AID 1053175; OD600 absorbance (no concentration beside the values); OD600, 23 h; hits give low values;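 active means OD600 absorbance below the run mean of sample wells minus 3.6 SD, in any replicate, cut at about 0.56 in these data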;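 further: stock transfer was 300 nL into about 60 µL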
FGF22 binding: shifts melting point of recombinant human FGF22; recombinant FGF22 thermal shift, SYPRO orange fluorescence; percent of sucrose octasulfate shift, DMSO zero; calls only at 9.99 µM; 1.5% of 340,000 active; AID 651658;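 active means melting point raised past a set limit in the mean and every replicate; inconclusive means no clear call; three in four hits are not shown here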
B2AR ag: activates human beta-2 adrenergic receptor causing internalization; P07550; Am2.2-beta2AR cells, FAP receptor internalization, flow cytometry; reference of the scale not given here; response, % (test concentration not listed); 0.43% of 340,000 active;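 active means response above a set limit, near 3 SD of response in nonfluorescent compounds, cut at about 42% in these data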;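 further: stock transfer was 100 nL into about 11 µL; a reference agonist was the positive control; negative values mostly stem from fluorescent compounds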
rRNA inh HTS: selective bacterial rRNA inhibition in E. coli; E. coli WT GFP vs humanized-ribosome RFP mutants, fluorescence, 24 h; hits give low values; DMSO median 0, no signal -100; 1.6% of 350,000 active; AID 720706; GFP signal change (wild-type ribosome), % (concentration not given with the values);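 active means significant combined selectivity score with lowered wild-type GFP, culture density cut under 30%, mutant RFP and density less affected; inactive means any of these conditions unmet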; further: one replicate is shown; some compounds called inactive have numbers as strong as hits
HNF4A DNA FP: change in binding of human HNF4 alpha to DNA. HNF4a-FITC DNA binding, fluorescence polarization, 1 h. activity change, % at 10 µM. 0.3% of 360,000 active; in the data active means activity change above about 30%, passing the limit was not always enough;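 further: controls were the assay level and a saturating level of protein; the project sought stronger binding though the title names inhibitors; some compounds called inactive have numbers as strong as hits; positive values seem to mean higher polarization but the record does not say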
Target sequence (P41235 whole entry, looked up): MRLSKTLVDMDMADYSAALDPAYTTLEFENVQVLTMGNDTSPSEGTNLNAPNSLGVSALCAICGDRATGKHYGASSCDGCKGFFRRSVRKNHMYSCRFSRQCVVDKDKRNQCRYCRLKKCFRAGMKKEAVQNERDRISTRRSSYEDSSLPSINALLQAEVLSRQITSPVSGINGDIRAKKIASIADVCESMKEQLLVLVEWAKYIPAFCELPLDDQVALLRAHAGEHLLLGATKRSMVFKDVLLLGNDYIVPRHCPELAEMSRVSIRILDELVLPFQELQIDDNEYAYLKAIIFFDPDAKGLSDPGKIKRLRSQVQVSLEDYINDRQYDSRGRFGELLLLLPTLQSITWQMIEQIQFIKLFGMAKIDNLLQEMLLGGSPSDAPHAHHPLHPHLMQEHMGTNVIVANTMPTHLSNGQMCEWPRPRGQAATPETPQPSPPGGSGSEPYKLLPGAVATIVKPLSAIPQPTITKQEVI
rRNA inh HTS OD600: recorded beside rRNA inh HTS, whose call it bears; OD600 change, %; measured here: OD600 growth;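 optical density of the mix in the first replicate; 0 = DMSO median and -100 = no signal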
rRNA inh HTS RFP: second read-out of rRNA inh HTS, no call of its own (marks repeat the call); RFP signal change, %; measured here: RFP humanized mutant strains;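 first replicate; 0 = DMSO median and -100 = no signal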
The depositor's hits bear a star; i = inactive; ? = inconclusive; . = no result given. An excerpt; rates above refer to the full screens.

compound	UCH37 inh	ALR H2O2 inh	Ecoli growth	FGF22 binding	B2AR ag	rRNA inh HTS	rRNA inh HTS OD600	rRNA inh HTS RFP	HNF4A DNA FP
CC1(C)OC(=O)C2=C(C[C@@H](C3CC3)O[C@H]2CCc2cccc(Cl)c2)O1	.	.	.	i	.	0	-8	-1.5	0.6
COc1ccc(CCNC(=O)Nc2nc(C(N)Cc3ccccc3)cs2)cc1OC (stereo unspecified)	.	.	.	i	.	-8	-23	4.1	-0.7
CCOc1ccc2nc(C)cc(Nc3cccc([N+](=O)[O-])c3)c2c1	6.7	-1	0.7	i	8	.	.	.	4.4
CCCCC(=O)Nc1ccc2c(c1)OCCO2	1.5	.	0.73	.	0	.	.	.	-0.5
Cc1ccc(S(=O)(=O)/N=C(\Nc2cc(C)on2)c2ccc(Cl)cc2)cc1	.	-5	.	i	-6	-5	2	0.4	3.9
C/C(=N\NC(=O)CC1N=C(Cc2ccccc2)NNC1=O)c1ccc(Cl)cc1Cl (stereo unspecified)	.	-13	.	.	-13	.	.	.	0.0
Cc1nc([N+](=O)[O-])c(Sc2nc3ccccc3[nH]2)n1Cc1ccccc1	7.8	42	0.69	i	-14	-1	-2	4.4	2.9
Cc1cc2cc(CN(CCN(C)C)C(=S)NCc3ccco3)c(=O)[nH]c2cc1C	-5.7	-15	0.7	i	9	14	12	2.9	5.1
N#CCCN(C(=O)COC(=O)CCC(=O)c1ccc(F)cc1)c1ccccc1	-0.7	-1	0.69	i	-2	0	5	-2.1	-2.9
CCOc1ccccc1N(C)C(=O)Cn1ncc2c([nH]c3ccccc32)c1=O	2.4	-1	0.67	i	-12	4	6	-1.0	0.7
COc1ccccc1NC(=O)C(C)n1cnc2c(oc3nc4c(cc32)CCCC4)c1=O (stereo unspecified)	0.7	-4	0.7	i	-10	-11	-20	-5.8	2.7
COc1ccc(-c2[nH]ncc2Oc2ccccc2OC)c(O)c1	5.1	?	0.75	.	6	.	.	.	0.9
O=C(CCn1c(=O)[nH]c2ccccc2c1=O)N1CC=C(c2ccccc2)CC1	1.0	44	0.68	i	-5	-4	0	-3.4	-1.1
C=CCc1cc(Cl)ccc1OCCNCCCOC	-0.2	-7	0.65	.	-1	.	.	.	-0.5
COCCNC(=O)C1(C)CCCN(Cc2cc3ccccc3o2)C1 (stereo unspecified)	.	.	.	i	.	8	10	-3.5	0.5
CSCCC(NC(=O)c1ccco1)C(=O)OCC(=O)N(Cc1ccccc1)C(C)(C)C (stereo unspecified)	3.9	0	0.69	i	6	10	11	1.9	0.4
COc1ccc(S(=O)(=O)N2CCCCC2c2cc(C(=O)NCc3ccccc3)no2)cc1 (stereo unspecified)	.	.	.	i	.	-1	-20	3.0	0.0
COc1ccc(CNC(=O)CCSCc2ccccc2C)cc1	2.9	47	0.71	.	2	-27	-31	-3.2	0.4
Cc1cccc(S(=O)(=O)N2CN(CC3CCCO3)c3nc4ccccc4nc32)c1 (stereo unspecified)	-5.0	3	0.69	i	-7	-1	-4	41	-0.4
Cc1cccc(/C=N/n2c(-c3ccncc3)n[nH]c2=S)c1	.	32	.	.	4	.	.	.	2.3
O=C(c1ccc(C(F)(F)F)cc1)N1CCC(=O)N([C@H](COCc2ccc(Cl)cc2)Cc2ccccc2)CC1	.	.	.	i	.	1	5	-0.9	-3.2
Nc1ccc(S(=O)(=O)N2CCCC2C(=O)O)cc1 (stereo unspecified)	0.4	-3	0.67	i	5	7	2	-4.8	-1.4
O=C(COC(=O)Cn1ccc(=O)[nH]c1=O)Nc1ccc(F)cc1	1.5	-3	0.74	i	1	14	20	1.9	-0.2
CC1CCCC(NC(=S)NC(=O)c2ccccc2Br)C1C (stereo unspecified)	4.0	37	0.72	.	3	.	.	.	3.1
Cc1ccc(S(=O)(=O)c2nc(-c3ccccc3)oc2NCc2cccnc2)cc1	-2.3	9	0.75	.	-4	.	.	.	-0.3
CSc1nc(NC(C)(C)C)nc(Oc2ccc(=O)n(C)n2)n1	1.7	.	0.73	.	10	.	.	.	1.8
CCn1c(COc2ccc(=O)n(-c3ccccc3)n2)nnc1SCC(=O)OC	0.3	.	0.68	i	3	-13	-3	5.3	0.5
CCOC(=O)c1c(-c2ccc3ccccc3c2)csc1NC(=O)CCCC(=O)O	4.1	.	0.72	i	0	12	-6	-3.5	-0.8
Cn1c(NCCCO)nc2c(c1=O)C1(CCCCC1)Cc1ccccc1-2	-232	-1	0.74	.	-21	.	.	.	1.5
CCOC(=O)N1CCN(C(=O)C(NC(=O)c2ccco2)C(C)C)CC1 (stereo unspecified)	2.6	-2	0.65	i	-3	1	7	1.3	0.3

An excerpt from above in order of their number in UCH37 inh, rising:
Compound | UCH37 inh | ALR H2O2 inh | Ecoli growth | FGF22 binding | B2AR ag | rRNA inh HTS | rRNA inh HTS OD600 | rRNA inh HTS RFP | HNF4A DNA FP
Nc1ccc(S(=O)(=O)N2CCCC2C(=O)O)cc1 (stereo unspecified) | 0.4 | -3 | 0.67 | i | 5 | 7 | 2 | -4.8 | -1.4
CSCCC(NC(=O)c1ccco1)C(=O)OCC(=O)N(Cc1ccccc1)C(C)(C)C (stereo unspecified) | 3.9 | 0 | 0.69 | i | 6 | 10 | 11 | 1.9 | 0.4
COc1ccc(-c2[nH]ncc2Oc2ccccc2OC)c(O)c1 | 5.1 | ? | 0.75 | . | 6 | . | . | . | 0.9

Additional compounds follow:
compound	UCH37 inh	ALR H2O2 inh	Ecoli growth	FGF22 binding	B2AR ag	rRNA inh HTS	rRNA inh HTS OD600	rRNA inh HTS RFP	HNF4A DNA FP
O=C(Cn1cnc2c(NCc3ccccc3)ncnc21)NCc1ccc2c(c1)OCO2	0.1	.	0.68	i	-9	-1	4	-2.7	0.2
O=C1C=C(c2ccccc2)C(O)(c2ccccc2)C1 (stereo unspecified)	1.1	-5	0.73	i	-1	-6	-7	-11	-2.7
Cc1ccc(OCC(=O)N2CCN(C(=O)c3ccncc3)CC2)cc1	-0.8	-6	0.66	i	-8	17	8	1.5	-6.7
COc1ccccc1NS(=O)(=O)c1cc(NC(=O)C2CCCC2)ccc1N1CCOCC1	1.7	-12	0.66	i	1	-9	-17	3.9	-1.1
CCc1ccc2nc3c(c(C(=O)O)c2c1)CCC3	5.5	-11	0.72	.	3	.	.	.	-2.1
Cc1noc(C)c1COc1ccc(C(=O)OC(C)C(=O)Nc2ccc(N3CCOCC3)cc2)cc1 (stereo unspecified)	1.5	1	0.68	.	-6	.	.	.	-0.5
CN(C)CCOc1ccc2c(c1)C(=O)C(=Cc1ncc([N+](=O)[O-])n1C)C2	.	.	.	i	.	-65	-81	-18	-0.5
CC(Sc1nnnn1C1CCCC1)C(=O)Nc1cccc(S(=O)(=O)N2CCOCC2)c1 (stereo unspecified)	1.8	-2	0.6	i	3	-2	2	5.7	1.6
Fc1ccc(-c2nc3c(Cl)cc(C(F)(F)F)cn3c2Cl)cc1	-4.5	-3	0.67	.	-1	.	.	.	-22
CN1CCN(CCCNc2c(C=O)c(=O)[nH]c3ccccc23)CC1	-1.0	8	0.61	i	-2	17	12	0.5	4.3
O=C(CC1NCCN(Cc2ccccc2)C1=O)Nc1ccccc1 (stereo unspecified)	2.5	-5	0.68	i	-5	6	4	2.8	-1.6
Cc1nc(SCC(N)=O)[nH]c(=O)c1CCC(C)C	-2.1	-2	0.7	.	6	-3	-16	-0.7	-3.4
Cc1ccc(N=Nc2c(C)[nH][nH]c2=O)c(C)c1	4.8	-7	0.71	.	-12	.	.	.	2.4
CCOc1ncccc1C(=O)OCC(=O)c1ccc[nH]1	1.2	.	0.72	.	0	.	.	.	2.7
CCN(C(=O)COC(=O)/C=C/c1cccc([N+](=O)[O-])c1)c1c(N)n(Cc2ccccc2)c(=O)[nH]c1=O	2.7	.	0.67	i	-1	9	18	-1.0	-0.2
O=C(Nc1ccccc1)/C(=C\c1cccs1)NC(=O)c1ccccc1	1.5	-2	0.74	.	-2	.	.	.	-21
Cc1cc(C(=O)N/N=C/c2cc(Cl)cc([N+](=O)[O-])c2O)c2ccccc2n1	.	5	.	i	5	-10	0	4.7	8.2
CCOC(=O)c1c(C)[nH]c(C(=O)OCc2c(C)noc2C)c1C	-0.9	1	0.71	.	4	.	.	.	-1.7
Cc1cc(C)cc(N(CC(=O)Nc2ccccc2)C2=NC3CS(=O)(=O)CC3S2)c1 (stereo unspecified)	6.6	98*	0.73	i	1	-6	-4	0.2	0.5
CCOc1[nH]n(-c2ccccc2)c(=O)c1C=Nc1ccccc1	2.3	-5	0.68	.	-4	8	11	2.8	-0.9
CN1CCN(Cc2nc3c(c(=O)n(C)c(=O)n3C)n2Cc2cccc3ccccc23)CC1	5.6	.	0.67	.	0	.	.	.	-1.4
CC(NC(=O)CCSCc1ccccc1F)c1ccccc1 (stereo unspecified)	5.0	2	0.67	.	-10	-1	-11	2.5	-1.6
O=C(c1ccc2ccccc2c1)N1CCOCC1	5.0	-6	0.68	i	9	-1	7	-4.1	-0.6
Cc1ccccc1NC(=O)C1CCN(c2cnccn2)CC1	-8.7	0	0.73	.	0	.	.	.	-0.5
COc1cc(C(=O)NCCc2ccccc2)ccc1OCC(=O)N1CCOCC1	-0.4	-4	0.67	i	5	2	7	-1.0	0.2
CNC(=O)C1=C(C)Nc2nc3ccccc3n2C1c1cccc(OC)c1 (stereo unspecified)	0.5	.	0.72	i	7	7	2	-0.1	7.0
COc1ccc(NC(=O)CCCC(=O)c2ccccc2)cc1	-1.0	7	0.59	i	0	2	4	-5.0	-2.7
O=S(=O)(Nc1cccc(-c2ccc(N3CCCCCC3)nn2)c1)c1ccc(F)cc1	1.8	-2	0.69	i	-4	-21*	-8.3*	1.7*	-5.3
COc1ccc(-n2cnnc2SCC(=O)Nc2cccnc2Cl)cc1	-1.4	-1	0.69	i	-4	14	11	1.5	-1.3
CCN(C(=O)c1cc2cc(OC)ccc2oc1=O)c1ccccc1	-5.4	-6	0.69	.	2	.	.	.	2.4
CCOC(=O)c1c(NC(=O)c2nn(CC)cc2Br)sc(C)c1C	-4.0	-5	0.71	.	-7	.	.	.	-0.5
c1ccc(Nc2nc(NCc3ccco3)c3ccccc3n2)cc1	-94	4	0.31*	i	18	-49	-55	-16	4.2
CC(=O)c1ccc(NS(=O)(=O)c2ccc(-c3cnc(C4CC4)o3)cc2)cc1	1.3	-8	0.64	.	-13	.	.	.	-2.0
O=C(N=Nc1c(O)[nH]c2ccc(Br)cc12)c1cc(-c2cccc3ccccc23)n[nH]1	.	-3	.	i	3	-3	-1	-0.7	3.4
CCC(=O)NC(=S)Nc1c(C)cc(Br)cc1C	2.0	-2	0.71	i	-1	-1	-7	-1.8	1.2
Cc1noc(C)c1-c1csc(N2CCC(C(N)=O)CC2)n1	0.0	3	.	i	-2	9	14	5.0	3.4
Cc1ccc(NC(CC(=O)c2ccccc2)c2ccc(F)cc2)cc1 (stereo unspecified)	1.8	6	0.74	.	13	.	.	.	1.0
CCCCN(C(=O)c1ccc(S(=O)(=O)N(C)C)cc1)c1nc2ccccc2s1	6.1	-14	0.68	.	5	.	.	.	-1.4
O=S(=O)(NCc1csc(-c2cccnc2)n1)c1ccc(F)cc1	5.3	-25	0.65	i	0	3	5	-0.8	-1.5
CC(C)CC1c2[nH]c3ccccc3c2CCN1C(=O)c1cnccn1 (stereo unspecified)	-10	38	0.74	i	.	1	-8	-3.4	.
